Bfl-1 A1 inh = inhibitors of the anti-apoptotic protein A1, read as caspase activation; hit rate 0.066% among 330,000; MEF A1-2A-BIM cells, Caspase-Glo 3/7 luminescence, 3 h; percent of clofoctol response, vehicle zero; AID 2462; caspase activation, % (concentration not given with the values);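 active = over half of replicate activation scores above 10%, or exactly half above 10 with the replicate mean above 10; inconclusive = replicate mean below 10 yet half the replicates above 10; inactive = over half of replicates below 10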;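 also: wells of about 30 µL received 50 nL stock; many hits fall short of the cut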
rRNA inh HTS = selective bacterial rRNA inhibition in E. coli; E. coli WT GFP vs humanized-ribosome RFP mutants, fluorescence, 24 h; hits give low values; DMSO median 0, no signal -100; GFP signal change (wild-type ribosome), % (no concentration beside the values); hit rate 1.6% among 350,000; AID 720706;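 active = significant combined selectivity score with lowered wild-type GFP, culture density cut under 30%, mutant RFP and density less affected; inactive = any of these conditions unmet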; also: one replicate is shown; some compounds called inactive have numbers as strong as hits
Beta apoptosis = beta cell apoptosis inhibition | INS-1E cytokine-induced death, ATP luminescence, 48 h; percent of positive-control rescue, neutral wells zero | protection from apoptosis, % (concentration not given with the values) | hit rate 0.8% among 300,000 | AID 435005;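 active = all replicates at 75% or more, or half of them and the mean; inconclusive = half reach 75% but not the mean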;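 also: 0% = cytokine-treated negative control wells and 100% = positive control rescue; higher means more ATP so stronger rescue from cytokine killing; wells of about 40 µL received 100 nL stock; the first replicate is given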
RanGTP-Impb inh = disruptors of Ran-importin-beta complex formation – biochemical, FRET, CFP-Ran, YFP-importin-beta, homogeneous, primary screen | cell-free CFP-Ran/YFP-importin-beta FRET ratio | inhibition, % (test concentration not listed) | hit rate 1.1% among 300,000 | AID 2216;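 active = most replicates above 15%; inconclusive = exactly half above 15%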;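 also: 0% = DMSO wells and 100% = Ran loaded with GDP instead of GTP; wells of about 40 µL received 100 nL stock; the first replicate is given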
T cruzi inh = blocks replication of Trypanosoma cruzi | T. cruzi beta-gal in NIH3T3, luminescence, 90 h | inhibition, % (concentration not given with the values) | hit rate 1.4% among 300,000;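 active = mean inhibition across valid replicates above about 55%, limit read from the data; inconclusive = mean below that limit but half or more replicates reach it; inactive = mean below it, under half of replicates reach it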;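 also: signal also drops with host cell toxicity which is not excluded here; 0% = plate median of DMSO wells and 100% = zero luminescence signal; higher percent means less beta-gal luminescence so fewer parasites; stock transfer was 50 nL into about 50 µL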
AF4-AF9 inh = blocks AF4 peptide binding to human AF9; P42568; hit rate 0.47% among 350,000; AlphaScreen, biotin-AF4 peptide binding to FLAG-AF9; inhibition, % at 10 µM; AID 651704;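 active = every replicate reaching a set inhibition limit, whatever the replicate mean, cut at about 25% in these data; inconclusive = mean inhibition reaches that limit but some replicates miss it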;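 also: 0% = plate neutral control median and 100% = total signal loss; the record names both 10 and 1 µM as test concentration; the first replicate is given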
Target sequence (P42568 whole entry, looked up): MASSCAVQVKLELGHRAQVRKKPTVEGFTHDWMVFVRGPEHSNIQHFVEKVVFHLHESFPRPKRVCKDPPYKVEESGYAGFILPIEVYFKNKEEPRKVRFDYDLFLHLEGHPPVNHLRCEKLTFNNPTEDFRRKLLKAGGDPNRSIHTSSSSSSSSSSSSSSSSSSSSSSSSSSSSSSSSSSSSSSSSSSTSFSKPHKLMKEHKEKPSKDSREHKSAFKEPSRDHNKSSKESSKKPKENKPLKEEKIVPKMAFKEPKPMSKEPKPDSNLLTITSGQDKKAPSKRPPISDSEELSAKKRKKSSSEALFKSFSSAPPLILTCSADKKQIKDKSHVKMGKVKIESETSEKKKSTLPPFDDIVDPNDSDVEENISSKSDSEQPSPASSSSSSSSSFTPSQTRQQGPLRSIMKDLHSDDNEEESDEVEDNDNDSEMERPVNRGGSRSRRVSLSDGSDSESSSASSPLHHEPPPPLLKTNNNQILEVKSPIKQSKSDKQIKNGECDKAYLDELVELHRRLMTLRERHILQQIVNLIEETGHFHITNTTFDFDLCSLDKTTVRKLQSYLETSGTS
Vif TR-FRET = HIV-1 Vif–A3G interaction blockers – biochemical, TR-FRET, GST-Vif 1-94, biotin-A3G peptide, dose response retest, primary screen (AID 1117319); inhibition, %; hits with a dose series show IC50 in µM; hit rate 0.57% among 260,000; TR-FRET GST-Vif / biotin-A3G peptide binding; higher % means a stronger effect; test concentration not given here; strong numbers were not always called active;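 active = above the screen mean plus three standard deviations and confirmed in dose response; inconclusive = results disagree or hit not tested in dose response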;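 also: Vif residues 1-94 fused to GST binding biotinylated APOBEC3G peptide 110-148; 0% = full assay without inhibitor and 100% = GST in place of GST-Vif; retest series ran down from 100 µM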
Calb FLC = C. albicans growth modulation with fluconazole; C. albicans CaCi-2 (fluconazole-resistant clinical isolate) + fluconazole, Alamar Blue growth, 48 h; growth inhibition, % (test concentration not listed); hit rate 0.57% among 300,000;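 active = most replicates above 75%; inconclusive = exactly half above 75%; inactive = most below 75%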;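 also: all wells also contain fluconazole at 8 µg/ml as a sub-toxic cotreatment; 0% = median of DMSO wells and 100% = median of geldanamycin control wells; wells of about 8 µL received 7.5 nL stock; the first replicate is given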
rRNA inh HTS OD600 = second read-out of rRNA inh HTS, no call of its own (marks repeat the call); OD600 change, %; measured here: OD600 growth;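 optical density of the mix in the first replicate; 0 = DMSO median and -100 = no signal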
rRNA inh HTS RFP = recorded beside rRNA inh HTS, whose call it bears; RFP signal change, %; measured here: RFP humanized mutant strains;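 first replicate; 0 = DMSO median and -100 = no signal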
* = called active by the depositor; ? = inconclusive; . = no result given; & = joins results of further samples. An excerpt; count on the stated rates, not on these rows.

structure	Bfl-1 A1 inh	rRNA inh HTS	rRNA inh HTS OD600	rRNA inh HTS RFP	Beta apoptosis	RanGTP-Impb inh	T cruzi inh	AF4-AF9 inh	Vif TR-FRET	Calb FLC
CCOc1cc(CNCCN2CCOCC2)ccc1OCc1ccccc1Cl	0.4	-13	-14	1.5	8	5.0	56*	18	-4%	4
O=C(NC(=S)Nc1ccccc1CO)C1CCCCC1	-0.6	8	-3	2.5	-8	.	.	3.4	7%	.
CCOc1ccc(N=Cc2ccc3ccccc3c2)cc1	0.7	6	13	4.7	-3	-2.0	20	-1.3	2%	6
COC(=O)c1c(-c2cc(C)ccc2C)csc1NC(=O)C1CC=CCC1C(=O)O (centres undefined)	-0.3	-11	-23	-0.2	2	-1.0	-6	-1.6	-1%	?
Cc1ccc(S(=O)(=O)N2CCC(C(=O)NC3CC3)CC2)cc1	0.4	4	1	1.0	5	0.9	-18	0.3	.	-5
O=S(=O)(/C=C/c1ccccc1)N1CCNCC1	0.3	9	10	-0.8	.	0.0	0	-0.7	.	2
O=C(CCC1COc2ccccc2O1)NCc1ccccc1 (centres undefined)	0.3	.	.	.	-5	5.4	-4	.	?	-9
CN(C)CCN(C(=O)c1ccc2ccccc2c1)c1nc2ccc(Br)cc2s1	-0.5	3	7	4.3	-7	9.8	36	-4.7	.	27
CCOCCn1c(=NC(=O)/C=C/c2ccccc2Cl)sc2cc(NC(C)=O)ccc21	0.0	.	.	.	.	0.4	13	.	.	-7
COc1ccccc1OC(C)C(=O)O (centres undefined)	0.5	.	.	.	-2	5.4	-15	.	2%	4
COc1ccc(CC(=O)Nc2cccc(-c3nnc(-c4cccc(C)c4)o3)c2)cc1OC	-0.9	11	8	-0.7	106*	-4.5	26	.	?	3
CC1=CN2C(=NC(=O)CC2(C)C(=O)N(CC(=O)NC2CCCC2)c2ccccc2C)C=C1 (centres undefined)	0.1	.	.	.	-3	1.8	-18	.	3%	0
O=C(O)C1CCN(C(=O)Cc2ccccc2)CC1	-0.3	13	11	5.1	-4	-0.4	-3	-0.2	10%	-6
C/C(=N\NC(=O)CCC(=O)Nc1ccccc1)c1cccs1	0.6	16	9	-2.4	-2	0.5	0	2.1	-8%	-15
CN(C)S(=O)(=O)c1ccc(C(=O)N2CCC(c3nc4ccccc4o3)CC2)cc1	0.7	.	.	.	-3	-4.6	8	.	-1%&-5%	-14
Cc1ccc(CN2CCNC(=O)C2CC(=O)N(C)C2CCOCC2)cc1 (centres undefined)	1.1	16	20	0.8	-6	1.5	-1	-3.4	2%	0
O=c1cc2c(nn1Cc1ccc(F)cc1)-c1ccccc1CC2	1.0	-59	-78	-20	-4	1.3	6	3.9	.	-18
CCCCOc1ccc(N2CC(C(=O)NCc3ccco3)CC2=O)cc1 (centres undefined)	0.4	-5	1	0.1	-3	-2.2	-10	-3.6	.	0
CC(NC(=O)c1ccccc1Br)c1ccc2c(c1)CCCC2 (centres undefined)	-0.1	.	.	.	3	-1.0	-1	.	-4%	-3
CCOC(=O)C1CCN(S(=O)(=O)c2cn(C)c(C)n2)CC1	0.0	2	8	2.2	-8	-3.0	-29	-1.8	-11%	?
O=C(O)c1[nH]nc2c1COc1ccccc1-2	0.2	.	.	.	-3	.	.	.	-1%	-3
COc1cc(S(=O)(=O)N2CCN(C(=O)c3ccco3)CC2)ccc1Cl	1.4	5	-2	4.6	-11	-3.2	11	0.2	.	4
Cc1c(NC(=O)Nc2ccc(F)cc2F)c(=O)n(-c2ccccc2)n1C	0.8	6	3	-1.3	-3	4.1	-5	-1.2	4%	-5
CC(=O)C1=C(O)C(=O)N(CO)C1c1ccccc1F (centres undefined)	0.6	16	4	3.6	2	1.9	-15	-3.8	13%	1
Cc1ccc(S(=O)(=O)N(C)C)cc1NC(=S)N(C)C1CCN(C)CC1	0.0	12	5	0.1	-2	?	-5	-1.0	-9%	-14
CCCCCCSc1cccc(-c2nc3cc(C)ccn3c2NCc2ccccc2)c1	-2.3	.	.	.	10	1.9	20	2.1	.	-7
CN(C)S(=O)(=O)N1CCN(CC(=O)Nc2cc(Cl)ccc2Cl)CC1	1.0	.	.	.	4	3.9	2	.	-7%	6
N#Cc1c(Oc2ccc3ccccc3c2)sc(C(=O)c2ccccc2)c1N	-0.7	.	.	.	-9	-4.2	8	.	-1%	-5
CCOC(=O)C1CCN(C(=O)COC(=O)CNC(=O)c2ccc(C(C)(C)C)cc2)CC1	0.1	-4	-7	2.2	-4	.	.	-1.2	-5%	.
CCOC(=O)c1c(-c2cccs2)csc1N	-0.3	9	4	4.7	-4	-2.5	-1	-2.2	7%	49
CNC(=S)N(Cc1ccco1)Cc1cc2cc(OC)c(OC)cc2[nH]c1=O	0.5	4	2	0.1	4	-1.2	4	5.4	15%	1
CC(Nc1cccc2ccccc12)C(=O)N/N=C/c1ccccn1 (centres undefined)	-0.2	.	.	.	1	-2.7	-4	.	9%	34
Cn1ncc2c(Nc3ccccc3Br)ncnc21	-0.7	.	.	.	-6	0.5	1	.	-3%	-1
O=C1C=CCC(/C=C/c2ccccc2)O1 (centres undefined)	-1.2	5	15	2.7	-5	5.2	31	-6.2	7%	5
Cc1noc(C)c1CS(=O)(=O)Cc1ccc(Cl)cc1	0.5	6	12	1.1	1	-1.0	7	0.8	7%	-2
CN(c1ncc(C(F)(F)F)cc1Cl)n1cc(C(=O)O)c2ccccc2c1=O	-0.3	.	.	.	0	0.0	-9	.	8%	-1
CCOC(=O)C1CCN(C(=O)Cn2c(=O)c3cccn3c3cccnc32)CC1	0.5	9	4	2.8	0	1.9	-15	-1.2	.	-4
CC(C)(C)NC(=O)C(OC(=O)c1cccs1)c1ccc(C#N)cc1 (centres undefined)	0.9	19	13	-5.5	3	-0.1	-7	-1.9	-4%	-26
CC(=O)c1ccccc1NC(=O)COC(=O)c1ccc2c(c1)nc(C)n2-c1ccccc1	0.0	.	.	.	-2	-0.9	4	.	-26%	-1
CCOC(=O)c1cnn(-c2nc(SC)nc3sc4c(c23)CCC4)c1N	-0.1	.	.	.	-5	1.2	3	.	3%	14
COc1ccc(C2c3[nH]c4ccccc4c3C[C@H]3C(=O)N(c4ccccc4C(=O)NCCN4CCOCC4)C(=O)N23)cc1 (some centres undefined)	0.8	18	-10	13	1	3.1	2	5.1	.	-7
CCOc1ccc(NC(=O)N2CCN(Cc3ccc4c(c3)OCO4)CC2)cc1	0.7	5	1	3.3	4	-0.7	4	-3.1	1%	-19
O=C(CSCC(=O)NC1CC1)Nc1ccc2ccccc2c1	.	.	.	.	.	7.0	-16	.	-10%	1
COc1ccc(CCc2nnc(CCC(=O)NCc3cc(C(C)C)no3)o2)cc1	-1.1	2	-3	2.5	-7	2.7	-13	-5.3	?	?
O=C(NC(=S)Nc1ccccc1N1CCCCC1)c1ccc(-c2cccc([N+](=O)[O-])c2)o1	-0.3	.	.	.	-5	-6.5	26	.	27%	-2
CC(=O)Nc1ccc(S(=O)(=O)c2c(N)n(CCN3CCOCC3)c3nc4ccccc4nc23)cc1	-0.6	.	.	.	-7	-2.3	0	.	-2%&-2%	8
COc1ccc(OC)c(Nc2nnc(C)c(=O)[nH]2)c1	0.6	18	17	4.2	-3	-0.5	13	-2.0	2%	3
CCOC(=O)c1cc2sccc2n1CC(=O)OC(C)C	-1.4	-16	-10	-14	-1	-1.6	22	-2.5	-5%	-2
CCOC(=O)CC1C(=O)NCCN1S(=O)(=O)c1cccc(C(F)(F)F)c1 (centres undefined)	0.2	4	3	0.1	-1	-1.0	-21	1.4	.	-2
Cc1ccc(C)c(S(=O)(=O)Nc2ccc(C(=O)N3CCCCC3)cc2)c1	-1.0	-21	-25	3.5	-6	1.4	2	-0.5	.	0
COc1ccccc1N1CCN(C2CCCN(C(=O)c3csc(C)n3)C2)CC1 (centres undefined)	-0.4	-4	1	-4.2	-2	-0.5	3	-9.1	.	-17
CC(=O)Nc1ccc(NCc2cccs2)cc1	0.5	12	6	0.7	1	?	-6	7.1	.	48
CCN(CC)c1ccc(N2C(=O)C3CCCCC3C2=O)cc1[N+](=O)[O-] (centres undefined)	-0.5	.	.	.	-8	8.3	-8	.	.	-2
CCc1nnc(NS(=O)(=O)c2ccc(NC(=O)c3cc(Cl)ccc3[N+](=O)[O-])cc2)s1	1.5	-21*	-11*	-2.1*	-6	-3.1	-3	-1.4	.	12
O=C(NCCCn1ccnc1)c1ccncc1	-1.0	.	.	.	-1	-0.8	3	.	1%	4
Cc1cc(C)nc(NC(=O)Nc2ccccc2C(F)(F)F)n1	0.1	-10	-9	8.6	15	-1.7	7	1.8	14%	-7
CC1CCC(NC(=O)c2cccc(S(=O)(=O)N3CCN(c4ccccc4)CC3)c2)CC1 (centres undefined)	-0.5	5	7	-1.6	7	-0.2	9	-20	0%	-15
COc1cc2cc(CCCOC(=O)c3ccc4c(c3)OCO4)oc(=O)c2cc1OC	-0.6	-12	-9	0.8	3	.	.	-2.7	.	.
CC(C)(C)C1CCC2(CC1)CC(=O)c1ccccc1O2 (centres undefined)	1.3	18	16	-3.2	2	0.1	-11	-1.8	2%	-2

Given with two lines to a compound: five of the compounds above.
Under each structure: Bfl-1 A1 inh, rRNA inh HTS, rRNA inh HTS OD600, rRNA inh HTS RFP, Beta apoptosis, RanGTP-Impb inh, T cruzi inh, AF4-AF9 inh, Vif TR-FRET, Calb FLC
CC(=O)Nc1ccc(S(=O)(=O)c2c(N)n(CCN3CCOCC3)c3nc4ccccc4nc23)cc1
    -0.6, ., ., ., -7, -2.3, 0, ., -2%&-2%, 8
COc1ccc(OC)c(Nc2nnc(C)c(=O)[nH]2)c1
    0.6, 18, 17, 4.2, -3, -0.5, 13, -2.0, 2%, 3
CCOC(=O)c1cc2sccc2n1CC(=O)OC(C)C
    -1.4, -16, -10, -14, -1, -1.6, 22, -2.5, -5%, -2
CCOC(=O)CC1C(=O)NCCN1S(=O)(=O)c1cccc(C(F)(F)F)c1 (centres undefined)
    0.2, 4, 3, 0.1, -1, -1.0, -21, 1.4, ., -2
Cc1ccc(C)c(S(=O)(=O)Nc2ccc(C(=O)N3CCCCC3)cc2)c1
    -1.0, -21, -25, 3.5, -6, 1.4, 2, -0.5, ., 0
